Menin-MLL FL inh: qHTS Assay for Inhibitors Targeting the Menin-MLL Interaction in MLL Related Leukemias: Competition With Fluorescein Labeled MLL-derived Peptide. AID 1766, 2009. Fluorescence polarization, fluorescein-MLL peptide displacement from menin. FP activity change, % at 61.4 µM. 290,000 tested, under 10 active; inconclusive = falling polarisation curve, or a change in total fluorescence; inactive = total fluorescence flat and polarisation flat or rising; no compound was filed as active; the % refers to the polarisation; negative = inhibition;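 further: % of control where 0% means no effect; inhibitors lower the polarisation; unlabelled MLL peptide was the positive control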
gsp antag: qHTS for Antagonists of gsp, the Etiologic Mutation Responsible for Fibrous Dysplasia/McCune-Albright Syndrome: qHTS. gsp-mutant cells, cAMP HTRF, 30 min; control for the full effect not named in the record. AID 624288, 2012. Potency, µM (highest dose often 76.9 µM), inactives show at the highest dose activity change, negative = inhibition, most hits filed as inhibitors. 340,000 tested, 0.4% active; active = falling curve of any shape with a large fitted effect; inconclusive = falling curve, mostly with a smaller effect; inactive = flat or rising curve; cell line not stated here;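 further: intracellular cAMP measured with PDE inhibitor Ro 20-1724 present during compound exposure; potency means the concentration at half of the fitted maximal effect; on the % scale 0 is the no-effect control and ±100 the full control effect; nearly all actives have a fitted effect of over 65% in size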
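Measurement of cellular cAMP by homogeneous time-resolved fluorescence following a 30 min compound exposure at 37C. The PDE inhibitor […] was present throughout; the assay buffer was DPBS with 0.05% BSA and 0.005% Tween 20.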
D2 PAM: Beta-Arrestin HTS for Positive Allosteric Modulators of the Human D2 Dopamine Receptor: Potentiators; DiscoveRx D2 beta-arrestin cells, luminescence, 90 min; 100% = 57 uM dopamine signal; D(2) dopamine receptor (Homo sapiens), P14416; potentiation, % (no concentration beside the values); 360,000 tested, 0.23% active; AID 624464, 2012; active = potentiation of 50% or more; inconclusive = 30% to 50%; inactive = 30% or less;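 further: compound concentration not given in the record; tested on top of an EC20 dose of dopamine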
Target sequence (P14416 whole entry, looked up): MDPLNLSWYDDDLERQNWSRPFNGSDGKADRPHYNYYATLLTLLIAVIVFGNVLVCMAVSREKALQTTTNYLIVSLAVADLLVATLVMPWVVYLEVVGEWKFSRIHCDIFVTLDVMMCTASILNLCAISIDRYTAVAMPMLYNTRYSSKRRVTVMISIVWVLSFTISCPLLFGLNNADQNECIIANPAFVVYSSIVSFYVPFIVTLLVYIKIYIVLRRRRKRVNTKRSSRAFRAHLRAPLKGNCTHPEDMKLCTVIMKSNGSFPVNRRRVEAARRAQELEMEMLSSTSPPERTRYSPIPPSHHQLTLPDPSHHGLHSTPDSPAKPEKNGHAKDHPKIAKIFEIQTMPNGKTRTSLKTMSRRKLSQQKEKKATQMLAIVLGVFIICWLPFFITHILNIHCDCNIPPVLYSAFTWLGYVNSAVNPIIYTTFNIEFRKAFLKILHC
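PathHunter beta-arrestin assay in DiscoveRx D2 cells. Compounds were added with an EC20 of dopamine (50 nM final) for 90 min at 37 deg C. Luminescence was read 1 h after detection reagent, with 57 uM dopamine as the EC100 control.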
Sfp PPTase inh: qHTS Assay for Inhibitors of Bacillus subtilis Sfp phosphopantetheinyl transferase (PPTase); 310,000 tested, 3.5% active; Biochemical Sfp PPTase activity, qHTS; AID 1490, 2009; Potency, µM, for inactives: max response, negative = inhibition, actives largely listed as inhibitors; active means well fitted inhibition curve with a large enough effect; inconclusive means small, poorly fitted or top-dose-only effect, or another doubt; inactive means no such curve, though single readings can be large or run the other way;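 further: the enzyme is Sfp with the accession as filed and its product quenches rhodamine fluorescence; potency means the concentration at half of the fitted maximal effect; 0% = enzyme reaction without inhibitor and -100% = no enzyme wells; top concentration of the series not given in the record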
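Buffer: 50 mM Hepes-Na pH 7.6, 10 mM MgCl2, 0.01% Nonidet P-40, 0.01% BSA. Enzyme 15 nM, pre-exposed to compound 15 min; substrates then added and fluorescence change tracked over 30 min.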
TRPV1 potentiator: HTS Assay for Compounds that Act as Potentiators of the Vanilloid Receptor 1. potentiation, % at 8.33 µM. TRPV1-expressing cells, Fluo-8 calcium influx, capsaicin EC20 potentiation; host cell line not named in the record; control for the full effect not named in the record. 320,000 tested, 0.02% active. AID 540277, 2011. Transient receptor potential cation channel subfamily V member 1 (Homo sapiens), Q8NER1; active means potentiation above 80%; inconclusive means 30% to 80%; inactive means below 30%; further: 0% is about no effect
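Cells expressing TRPV1 were dye-loaded with Fluo-8 and read kinetically: 10 s baseline, 3 min after compound (agonist portion), then 2 min after EC20 capsaicin (allosteric enhancer portion). Calcium-bound dye fluorescence at 480/520 nm.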
gsp ag: qHTS for Agonist of gsp, the Etiologic Mutation Responsible for Fibrous Dysplasia/McCune-Albright Syndrome: qHTS | gsp mutant cells, cAMP HTRF, 30 min; control for the full effect not named in the record | Potency, µM (doses to about 76.9 µM), for inactives: at the top dose activation (cAMP increase), most hits filed as activators | 340,000 tested, 0.13% active; active = well fitted activation curve with a large enough effect; inconclusive = small, poorly fitted or top-dose-only effect, or another doubt; inactive = no such curve, though single readings can be large or run the other way; cell line not stated here;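 further: phosphodiesterase inhibitor Ro 20-1724 added with compounds to block cAMP breakdown; potency means the concentration at half of the fitted maximal effect; nearly all actives have a fitted effect of over 60% in size; about a fifth of the inactives were tested at one dose only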
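Cells in DMEM/10% FBS with G418 were pretreated with compounds in DMSO plus […] (300 uM stock) for 30 min at 37C. cAMP was measured by HTRF (cAMP-d2 plus anti-cAMP antibody-K) after 30 min at room temperature.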
ClpP mod: qHTS Assay for Activators of ClpP. ATP-dependent Clp protease proteolytic subunit (Bacillus subtilis (strain 168)), P80244. purified B. subtilis ClpP, FRET peptide cleavage, 20 min. Potency, µM (highest dose often 57.5 µM), for inactives: at the top dose activity change, negative = active. 340,000 tested, 1.9% active. AID 651965, 2013; active = well fitted falling curve with a large enough effect; inconclusive = small, poorly fitted or top-dose-only effect; inactive = no such curve, though single readings can be large or run the other way; further: potency means the concentration at half of the fitted maximal effect; the source files actives as falling curves though it sought activators and does not explain the sign; nearly all actives have a fitted effect of over 65% in size; many hits overshoot -100%
Target sequence (P80244 whole entry, looked up): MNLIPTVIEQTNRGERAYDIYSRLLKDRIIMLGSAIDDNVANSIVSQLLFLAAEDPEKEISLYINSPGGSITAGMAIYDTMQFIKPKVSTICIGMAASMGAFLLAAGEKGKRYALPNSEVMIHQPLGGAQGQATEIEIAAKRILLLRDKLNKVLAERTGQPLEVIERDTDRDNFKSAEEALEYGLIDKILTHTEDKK
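Purified B. subtilis ClpP, 10 microg/mL final in Tris/HCl pH8 with KCl, BSA, glycerol and Tween-20, cleaved an Abz/nitrotyrosine-quenched decapeptide. Fluorescence (ex 320, em 430) was read at 0 and 20 min at room temperature. Delta was normalized to 5.8 microM ADEP and DMSO/no-enzyme controls.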
Numbers without * were called inactive; ? = inconclusive; . = not tested or not shown; [ ] = remark or other dose.

SMILES	Menin-MLL FL inh	gsp antag	D2 PAM	Sfp PPTase inh	TRPV1 potentiator	gsp ag	ClpP mod
CCOC(=O)c1cc(NC(=O)C2CCCO2)cc(C(=O)OCC)c1 (stereo unspecified)	2.0	-1%	-3	0%	-6	15%	-1.3%
CN(CCOc1ccccc1)C(=S)Nc1ccc(OC(F)F)cc1	-4.4	-12%	-8	15%	4	-4%[15.4 µM]	.
CC(C)(C)[C@@H]1COC(=O)[C@H](Cc2ccc(F)cc2)CC/C=C\C[C@H](CC(=O)N(CCO)Cc2ccccc2)C(=O)N1	.	?	0	.	.	.	0.3%
Cc1cccc(OCC(=O)N2CCN(C(=O)c3ccco3)CC2)c1	1.1	2%	-3	22%	-2	?	-1.8%
C#Cc1ccc([C@@H]2C=C(C(=O)OCC=C)O[C@H](OCC)[C@H]2CCCO)cc1	5.6	-15%	17	-17%	?	.	2.3%
COc1ccc(S(=O)(=O)N2CCOCC2)cc1NC(=O)Cc1ccccc1Cl	4.1	11%	-7	-1%	-3	6%	5.0%
CN1CCCC(OC(=O)CCCC(=O)OC2CCCN(C)C2)C1 (stereo unspecified)	-1.9	12%	-21	-10%	-13	-19%	-0.9%
O=C(O)CC1c2ccccc2CCN1S(=O)(=O)c1ccc(F)cc1 (stereo unspecified)	-13	11%	-3	11%	5	7%[15.4 µM]	.
Cc1ccc(C)c2c1N(Cc1ccccc1)C(=O)C21OCCO1	3.6	1%	9	1%	12	1%	0.2%
CCCNC(=O)NC(=O)CN1C(=O)NC(C)(c2ccc(C)cc2)C1=O (stereo unspecified)	-2.6	8%	2	-4%	-9	3%	0.3%
CCOc1ccccc1NC(=O)CSc1cn[nH]n1	.	-10%	-11	.	-1	13%[15.4 µM]	.
COC(=O)c1c(C)[nH]c(/C=N/Nc2ccccc2)c1C	0.1	8%	5	-3%	5	-10%[15.4 µM]	.
Cc1ccc2ncnc(Nc3ccccc3)c2c1	2.5	-2%	3	24%	-15	-21%[15.4 µM]	.
CCC(=O)N1c2ccc(S(=O)(=O)N3CCCCC3)cc2CC1C (stereo unspecified)	.	-13%	-1	8%	-27	-36%[inhibitor]	0.6%
COc1ccc(N(CC(=O)N2CCc3ccccc3C2)S(=O)(=O)c2ccccc2)cc1	-1.0	.	-23	18%	-11	-5%[15.4 µM]	-0.2%
CCc1cc2c(=O)n(N)c(CCC(=O)O)nc2s1	-1.5	9%	-2	4%	4	1%	-2.0%
COc1ccc(-n2c(C)nc3c(cnn3-c3ccccc3)c2=O)cc1	2.7	-25%	0	5%	12	-1%	0.4%
CC1CCCN(CCCNC(=O)C2CCN(S(=O)(=O)N3CCC4(CC3)OCCO4)CC2)C1 (stereo unspecified)	0.2	-25%	-6	11%	4	-4%	-2.5%
COc1cc(CC2C(=O)OCC2C(=O)c2ccc3c(c2)OCO3)cc(OC)c1OC (stereo unspecified)	.	-12%	-12	.	.	-5%	-2.6%
Cc1ccc(S(=O)(=O)NC(C)(C)CN2CCC(Cc3ccccc3)CC2)cc1	-0.3	11%	-24	?	1	22%	0.5%
CCn1cc(/C=N/NC(=O)c2cc3c(ccc4ccccc43)o2)c2ccccc21	-1.8	0%	?	7%	13	2%	?
Cc1csc(SCC(=O)Nc2cc(S(=O)(=O)N3CCOCC3)ccc2N2CCOCC2)n1	-1.9	1%	-4	13%	18	-6%	0.4%
COc1ccccc1N/C=C(\C#N)c1nc2ccccc2[nH]1	-2.0	1%	4	16%	-24	-30%[inhibitor]	-3.0%
COc1ccccc1C1CCN(c2ccc([N+](=O)[O-])c(OC)c2)CC1	-0.6	-17%	-2	-4%	.	-2%[15.4 µM]	.
COc1cc(CNc2ncnc3c2[nH]c2ccc(C)cc23)cc(OC)c1	2.5	?	-27	?	19	11%	3.6%
Nn1c(SCC(=O)Nc2ccc3c(c2)OCO3)nnc1C(F)(F)F	-1.7	5%	4	-6%	0	0%[15.4 µM]	.
Cn1c(SCC(=O)c2ccccc2F)nnc1C1CC1	-0.2	-5%	-25	50µM*	-5	-36%[inhibitor]	0.3%
O=C1OC(c2ccccc2)(c2ccccc2)c2ccccc21	.	-15%	-5	.	.	-10%	.
CCC1=NC(c2ccc(OC)cc2OC)N(O)C1(C)C (stereo unspecified)	5.8	0%	-6	-26%	16	9%	-6.4%
Cc1c(NC(=O)c2cccc(NS(C)(=O)=O)c2)c(=O)n(-c2ccccc2)n1C	0.1	8%	-4	12%	-2	?	-3.1%

Looked up above:
COc1ccc(S(=O)(=O)N2CCOCC2)cc1NC(=O)Cc1ccccc1Cl – Sfp PPTase inh = -1%
Cc1ccc(S(=O)(=O)NC(C)(C)CN2CCC(Cc3ccccc3)CC2)cc1 – D2 PAM = -24

The list continues.
SMILES	Menin-MLL FL inh	gsp antag	D2 PAM	Sfp PPTase inh	TRPV1 potentiator	gsp ag	ClpP mod
NC(=O)c1cc(-c2ccncc2)nc2ccc(Cl)cc12	6.2	-10%	-4	-14%	3	9%[15.4 µM]	-1.4%
COc1ccc(OC)c(NC(=O)Nc2nnc(N3CCC(C)CC3)s2)c1	7.4	-9%	3	-22%	8	9%	0.4%
COc1ccc(Nc2nc3c(c(=O)n(C)c(=O)n3C)n2CCO)cc1	2.1	-5%	23	27%	21	9%	-8.5%
CC(=NC1CCN(Cc2ccccc2)CC1)c1c(O)[nH]c(=O)[nH]c1=O	0.7	5%	-7	10%	-4	3%	-0.8%
CCN(CC)C(=O)/C(=C\c1ccc(Br)cc1)NC(=O)c1ccccc1OC	-0.4	-11%	-2	9%	-16	-19%	0.1%
COc1ccc(OC)c(C(=O)C(=O)c2cc(OC)ccc2OC)c1	.	-9%	6	.	.	13%[15.4 µM]	-14%
Cc1c(C(=O)NC(C)C2CC3CCC2C3)cccc1[N+](=O)[O-] (stereo unspecified)	1.6	0%	-5	6%	24	-1%[15.4 µM]	.
O=C(NCc1cccs1)c1cccc(S(=O)(=O)N2CCCCC2)c1	0.4	-16%	3	7%	-15	6%	0.7%
CN(C)C(=O)/C(=C/c1cn(-c2ccccc2)nc1-c1cccc([N+](=O)[O-])c1)NC(=O)c1ccccc1	1.1	-8%	-1	5%	13	11%[15.4 µM]	-1.6%
COc1ccc(N/N=C(/C(N)=O)C2=NC(C)(C)Cc3ccccc32)cc1	-2.0	?	-22	28µM*	-8	-3%	0.8%
O=C(/C=C/c1cccc(C(F)(F)F)c1)NNC(=O)c1ccncc1	.	1%	-69	.	-3	-27%[15.4 µM]	.
Cc1ccc(CNC(=O)Cc2ccc(-c3ccccc3)cc2)cc1	2.2	14%	8	-3%	-7	-2%	-1.0%
Cn1c(=O)c2c(SCC(=O)c3ccccc3)nc(C3CC3)nc2n(C)c1=O	-0.4	5%	-3	-13%	4	-125%	1.3%
O=C(Nc1ncccc1O)c1cccc(S(=O)(=O)N2CCCc3ccccc32)c1	.	13%	0	.	9	?	-2.1%
O=C1c2cccc3cc([N+](=O)[O-])cc(c23)C(=O)N1CCN1CCCC1	?	-12%	5	-2%	22	30%	.
COc1ccc(OC)c(/C=C/C(=O)c2ccc3c(c2)OCO3)c1	.	-6%	3	.	-3	19%	-3.3%
Cc1ccc(OCCOc2cccc(Br)c2)c([N+](=O)[O-])n1	2.9	-42%	-4	-12%	-9	3%[15.4 µM]	-0.3%
CN(Cc1ccccc1)C(=O)COC(=O)CCNC(=O)c1ccccc1Cl	0.6	-2%	-21	2%	3	5%[15.4 µM]	0.2%
Cn1cc(/C=C(\C#N)C(=O)Nc2ccccc2O)c2ccccc21	?	?	-2	-2%	-11	8%[15.4 µM]	-0.1%
CCOc1ccc(NC(=O)CN(C)C(=O)COc2cccc(CC)c2)cc1OCC	.	3%	15	.	-1	-36%[inhibitor]	-1.7%
O=C(Nc1ccccc1C(=O)NC(Cc1c[nH]c2ccccc12)C(=O)O)c1ccco1 (stereo unspecified)	-1.0	-7%	-38	9%	-1	-6%	0.4%
Cc1ccc(Sc2ccc(N)cn2)cc1	-1.2	4%	-3	10%	.	-19%	.
COc1ccc(C2CC(c3ccccc3)=NN2C(=O)COC(=O)c2cccnc2Cl)cc1 (stereo unspecified)	4.1	-6%	-13	5%	-3	7%	-25%
CC(C)c1ccc(C(=O)Nc2nnc(S(=O)(=O)N3CCOCC3)s2)cc1	.	-28%	-1	17%	-28	?	-5.5%
CCCc1nnc(SCC(=O)N2C(C)CCCC2C)n1CCCOC (stereo unspecified)	7.9	5%	-4	14%	-19	-1%	-0.7%
COc1nc2ccc(C)cc2cc1-c1noc(-c2cccnc2)n1	4.5	-4%	-21	4%	.	-35%[inhibitor]	-11%
Cc1ccc(CSc2nnc(-c3cccc(S(=O)(=O)N4CCOCC4)c3)n2C2CCCC2)cc1	0.0	?	-13	-14%	9	3%	-2.7%
O=C(N/N=C/C=C/c1ccccc1)c1cnccn1	-0.6	10%	-30	-3%	4	-19%	6.2%
CCn1c(NCc2ccc3c(c2)OCO3)nc2ccccc21	-0.4	10%	-36	5%	17	-4%	-2.1%
O=C(NCc1ccncc1)c1nc(-c2cccs2)no1	-2.8	8%	-7	19%	-12	-5%[15.4 µM]	.
Cc1cc(C)n(-c2nnc(C)c(=O)[nH]2)n1	2.4	-8%	-2	63µM*	0	14%	1.2%
O=C(O)CCC(=O)N1CCc2cc(S(=O)(=O)NCc3ccc(Cl)cc3)ccc21	.	-3%	-14	12%	-8	19%	-3.3%
CCn1c(SCc2ccccc2)nc2ccccc2c1=O	.	-12%	0	.	.	-27%	.
CCOC(=O)N1CCC(NS(=O)(=O)c2ccccc2)CC1	0.0	8%	-13	20%	-12	-5%	-1.5%

Compounds were not picked by outcome; about 5.1% have a hit in one of these screens.
